ClpP mod: qHTS Assay for Activators of ClpP; ATP-dependent Clp protease proteolytic subunit (Bacillus subtilis (strain 168)), P80244; 340,000 tested, 1.9% active; purified B. subtilis ClpP, FRET peptide cleavage, 20 min; Potency, µM (top dose mostly 57.5 µM), for the others: top-dose activity change, negative = active; AID 651965, 2013; active = well fitted falling curve with a large enough effect; inconclusive = small, poorly fitted or top-dose-only effect; inactive = no such curve, though single readings can be large or run the other way; further: potency means the concentration at half of the fitted maximal effect; the source files actives as falling curves though it sought activators and does not explain the sign; nearly all actives have a fitted effect of over 65% in size; many hits overshoot -100%
Target sequence (P80244 whole entry, looked up): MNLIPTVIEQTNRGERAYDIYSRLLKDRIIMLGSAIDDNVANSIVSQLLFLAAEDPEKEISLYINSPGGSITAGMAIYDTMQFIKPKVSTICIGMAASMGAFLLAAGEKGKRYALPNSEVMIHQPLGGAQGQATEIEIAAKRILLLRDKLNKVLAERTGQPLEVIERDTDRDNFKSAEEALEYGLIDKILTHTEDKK
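Buffer: 100 mM Tris/HCl pH8, 100 mM KCl, 0.05% low protease BSA, 2.5% glycerol, 0.01% Tween-20. ClpP 10 microg/mL final; 20 min RT; delta FRET normalized to ADEP and DMSO controls.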
CtBP-E1A inh: qHTS Assay for Inhibitors of the CtBP/E1A Interaction | 340,000 tested, 0.49% active | AID 651724, 2012 | activity change, % (no concentration beside the values) | CtBP / adenovirus E1A interaction (AlphaScreen) | AlphaScreen GST-E1A/His-CtBP binding, 1536-well; active compounds read low; control for the full effect not named in the record; in the data active means activity change below about -65%; inconclusive means about -30% to -65%; inactive means above about -30%; further: on the % scale 0 is the no-effect control and ±100 the full control effect
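In 5 uL wells, 23 nL compound meets equimolar GST-E1A and His-CtBP (5X stock 125 nM each) for 2 h, 37 °C. Beads (5X, 50 ug/mL) then 1 h, 37 °C, dark.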
Sfp PPTase inh: qHTS Assay for Inhibitors of Bacillus subtilis Sfp phosphopantetheinyl transferase (PPTase) | Biochemical Sfp PPTase activity, qHTS | Potency, µM, for the others: max response, negative = inhibition, actives largely listed as inhibitors | AID 1490, 2009 | 310,000 tested, 3.5% active; active means well fitted inhibition curve with a large enough effect; inconclusive means small, poorly fitted or top-dose-only effect, or another doubt; inactive means no such curve, though single readings can be large or run the other way;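 further: the enzyme is Sfp with the accession as filed and its product quenches rhodamine fluorescence; potency means the concentration at half of the fitted maximal effect; 0% = enzyme reaction without inhibitor and -100% = no enzyme wells; top concentration of the series not given in the record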
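Sfp 15 nM + cpd, 15 min RT; start w/ rhodamine-CoA 5 uM, BHQ-2-YbbR 12.5 uM (final); 50 mM Hepes pH 7.6, 10 mM MgCl2, 0.01% NP-40, 0.01% BSA; read 525/598 nm at 0 and 30 min.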
TRPV1 potentiator: HTS Assay for Compounds that Act as Potentiators of the Vanilloid Receptor 1. TRPV1-expressing cells, Fluo-8 calcium influx, capsaicin EC20 potentiation; host cell line not named in the record; control for the full effect not named in the record. potentiation, % at 8.33 µM. 320,000 tested, 0.02% active; active means potentiation above 80%; inconclusive means 30% to 80%; inactive means below 30%; further: 0% is about no effect
Target sequence (Q8NER1 whole entry, looked up): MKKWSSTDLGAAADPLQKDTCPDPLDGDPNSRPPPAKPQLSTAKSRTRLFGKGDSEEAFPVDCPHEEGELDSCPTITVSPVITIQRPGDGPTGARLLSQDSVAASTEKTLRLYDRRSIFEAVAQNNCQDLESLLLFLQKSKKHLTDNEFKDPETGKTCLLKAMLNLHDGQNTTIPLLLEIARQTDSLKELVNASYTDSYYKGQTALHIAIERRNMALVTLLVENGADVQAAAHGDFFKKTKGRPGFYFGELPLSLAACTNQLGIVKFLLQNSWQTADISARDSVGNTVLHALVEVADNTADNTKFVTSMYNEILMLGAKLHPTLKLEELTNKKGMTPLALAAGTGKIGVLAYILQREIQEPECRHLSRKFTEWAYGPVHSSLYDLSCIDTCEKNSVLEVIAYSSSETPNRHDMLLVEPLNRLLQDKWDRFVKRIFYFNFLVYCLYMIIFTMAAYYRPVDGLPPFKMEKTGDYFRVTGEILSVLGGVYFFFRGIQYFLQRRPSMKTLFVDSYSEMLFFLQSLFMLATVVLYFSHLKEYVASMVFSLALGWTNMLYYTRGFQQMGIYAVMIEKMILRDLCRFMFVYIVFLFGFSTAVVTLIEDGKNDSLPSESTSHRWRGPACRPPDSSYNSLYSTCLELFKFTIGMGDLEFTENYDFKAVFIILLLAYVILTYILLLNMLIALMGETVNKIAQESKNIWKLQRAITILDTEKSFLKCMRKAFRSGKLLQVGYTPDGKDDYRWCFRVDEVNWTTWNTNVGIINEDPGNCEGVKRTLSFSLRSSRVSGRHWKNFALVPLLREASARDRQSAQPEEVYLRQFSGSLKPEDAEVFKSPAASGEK
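Fluo-8 calcium influx in TRPV1-expressing cells, kinetic read (ex 480/em 520 nm). Compound added and read 3 min for agonist activity, followed by capsaicin at EC20 final and 2 min further read for enhancement.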
gsp antag: qHTS for Antagonists of gsp, the Etiologic Mutation Responsible for Fibrous Dysplasia/McCune-Albright Syndrome: qHTS | gsp-mutant cells, cAMP HTRF, 30 min; control for the full effect not named in the record | AID 624288, 2012 | Potency, µM (series often up to 76.9 µM), without a hit: at the top dose activity change, negative = inhibition, actives largely listed as inhibitors | 340,000 tested, 0.4% active; active = falling curve of any shape with a large fitted effect; inconclusive = falling curve, mostly with a smaller effect; inactive = flat or rising curve; cell line not stated here;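 further: intracellular cAMP measured with PDE inhibitor Ro 20-1724 present during compound exposure; potency means the concentration at half of the fitted maximal effect; on the % scale 0 is the no-effect control and ±100 the full control effect; nearly all actives have a fitted effect of over 65% in size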
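Measurement of cellular cAMP by homogeneous time-resolved fluorescence following a 30 min compound exposure at 37C. The PDE inhibitor […] was present throughout; the assay buffer was DPBS with 0.05% BSA and 0.005% Tween 20.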
Menin-MLL FL inh: qHTS Assay for Inhibitors Targeting the Menin-MLL Interaction in MLL Related Leukemias: Competition With Fluorescein Labeled MLL-derived Peptide; FP activity change, % at 61.4 µM; Fluorescence polarization, fluorescein-MLL peptide displacement from menin; 290,000 tested, under 10 active; AID 1766, 2009; inconclusive = falling polarisation curve, or a change in total fluorescence; inactive = total fluorescence flat and polarisation flat or rising; no compound was filed as active; the % refers to the polarisation; negative = inhibition;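 further: % of control where 0% means no effect; inhibitors lower the polarisation; unlabelled MLL peptide was the positive control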
gsp ag: qHTS for Agonist of gsp, the Etiologic Mutation Responsible for Fibrous Dysplasia/McCune-Albright Syndrome: qHTS. gsp mutant cells, cAMP HTRF, 30 min; control for the full effect not named in the record. 340,000 tested, 0.13% active. Potency, µM (top dose mostly 76.9 µM), without a hit: at the highest dose activation (cAMP increase), hits mostly activators; active = well fitted activation curve with a large enough effect; inconclusive = small, poorly fitted or top-dose-only effect, or another doubt; inactive = no such curve, though single readings can be large or run the other way; cell line not stated here;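 further: phosphodiesterase inhibitor Ro 20-1724 added with compounds to block cAMP breakdown; potency means the concentration at half of the fitted maximal effect; nearly all actives have a fitted effect of over 60% in size; about a fifth of the inactives were tested at one dose only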
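Cells stably selected in G418 were plated at 2000/well, grown 16-24 hr, then given compounds in DMSO with the PDE inhibitor […] (300 uM solution added) for 30 min at 37C; cAMP was read by HTRF.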
Numbers without * were called inactive; ? = inconclusive; / = no result given; & = joins results of further samples; [ ] = remark or other dose.

SMILES	ClpP mod	CtBP-E1A inh	Sfp PPTase inh	TRPV1 potentiator	gsp antag	Menin-MLL FL inh	gsp ag
CN1CCN(C(CNC(=O)Nc2ccc(Cl)cc2)c2ccc(F)cc2)CC1 (stereo not given)	0.4%	-14	8%	20	16%	0.1	-36%[inhibitor]
COc1cnn(-c2cccc(C)c2)c(=O)c1Cl	0.3%	7	3%	0	12%	1.8	-10%
COc1ccccc1N/C(N)=N/c1nc(CSc2nc3ccccc3s2)cc(=O)[nH]1	/	/	5%	7	/	10	/
O=C(N/N=C\c1c(O)ccc2ccccc12)c1ccc(O)cc1	-7.4%	?	-7%	1	-4%	?	-7%
Nc1nc(-c2ccco2)nn1C(=O)c1ccccc1Cl	/	0	3%	?	0%	-5.4	12%[15.4 µM]
C/C(=N\NC(=O)COc1ccc(C(C)(C)C)cc1)c1ccc(-n2ccnc2)cc1	-1.6%	-13	18%	-12	-15%	-3.0	0%
CC1CCc2sc3ncnc(N4CCN(C)CC4)c3c2C1 (stereo not given)	-4.2%	0	11%	-15	18%	5.1	-10%[15.4 µM]
COc1ccc(CC(=O)Nc2cc(S(=O)(=O)N3CCOCC3)ccc2N2CCOCC2)cc1	/	8	26%	4	/	-1.8	-10%[15.4 µM]
CC1(C)CC2(CCCN(C(=S)Nc3ccccc3)C2)CCO1 (stereo not given)	-1.2%	-22	-2%	0	5%	3.5	-4%[15.4 µM]
C=CCSc1nc(N(CC)CC)c2sccc2n1	0.1%	25	-9%	-1	-7%	-2.4	-55%[inhibitor]
COc1cccc(/C=N/n2nnnc2N)c1OCC#N	-0.1%	1	/	/	11%	/	-6%[15.4 µM]
c1ccc(Nc2nc(N3CCOCC3)c3ccccc3n2)cc1	-13%	3	9%	20	-29%	3.5	?
COc1ccc(NC(=O)CN2CCOCC2)cc1S(=O)(=O)N1CCCCC1	1.5%	1	/	1	8%	/	-6%
COc1ccc(-n2nc(C(=O)NCC(=O)NCCCN3CCC(C)CC3)c3ccccc3c2=O)cc1Cl	/	1	21%	0	7%	6.8	-3%
Cc1ccc(-c2csc(Cc3nc(-c4cc5ccccc5oc4=O)cs3)n2)cc1	?	11	8%	-6	-12%	2.4	-7%
CCCCCCN1C[C@H](n2cc(COC(=O)c3ccccc3)nn2)[C@@H](O)C[C@@H]1c1ccccc1	-0.4%	0	/	/	/	/	-100%[inhibitor]
COc1cc(C(=O)NCCCC2CCCC2)ccc1OC1CCN(C(C)=O)CC1	-2.7%	4	17%	4	-6%	-0.2	?
CCOc1ccc(N2CC(C(=O)Nc3cc(OCC)c(N4CCOCC4)cc3OCC)CC2=O)cc1 (stereo not given)	0.2%	6	/	-4	-14%	/	22%[15.4 µM]
COc1ccccc1NS(=O)(=O)c1cc(C(=O)NCCN2CCOCC2)ccc1Cl	1.8%	7	-13%	8	7%	-2.0	-41%[inhibitor]
O=C(CSc1nc2ccccc2s1)NNC(=S)Nc1ccc(Br)cc1	0.6%	-11	14%	-6	?	1.9	7%[15.4 µM]
Brc1ccc2c(c1)OCCOCCOc1cc(Br)ccc1OCCOCCOCCO2	-0.7%	5	8%	12	50µM*	-0.5	-9%
COc1ccc(C(=O)c2cccc(C(=O)c3ccc(OC)c(C)c3)c2)cc1C	/	0	-2%	-21	-5%	0.2	0%
COc1ccc(/C=N/NC(=O)c2ccccc2O)cc1CN1CCOCC1	/	-1	12%	8	-10%	0.2	-11%[15.4 µM]
CCOC(=O)c1c(C)[nH]c(C(=O)OCC(=O)NC2(C#N)CCCCC2)c1C	0.2%	-2	/	-7	-6%	/	5%[15.4 µM]
CC1=C(C)CC(C(=O)Nc2ccc3c(c2)OCO3)C(C(=O)O)C1 (stereo not given)	/	-4	-8%	5	-12%	0.1	-37%[inhibitor]
CC(=O)Nc1ccc(C(=O)Nc2cc(C(F)(F)F)ccc2-n2cnc3ccccc32)cc1	-4.2%	-17	6%	-19	8%	1.4	2%[15.4 µM]
CCOc1ccc(N(CC(=O)NCC2CCCO2)C(=O)CCC(=O)Nc2ccccn2)cc1 (stereo not given)	-0.2%	0	14%	3	-9%	4.1	-34%
CCC(C)c1ccccc1N1CC(C(=O)Nc2ccc(C)c(S(=O)(=O)N3CCOCC3)c2)CC1=O (stereo not given)	-0.6%	1	/	10	-15%	/	-80%[inhibitor]
C/C(N)=C(/C#N)C(=O)CSc1nnnn1-c1ccc(C)cc1	-1.8%	2	8%	-29	7%	3.1	?
O=C(c1cccc(S(=O)(=O)N2CCCC2)c1)N1CCN(c2ccccc2F)CC1	-0.8%	3	26%	-16	?	0.7	-22%
CC(C)(CNS(=O)(=O)c1ccc2c(c1)OCCO2)N1CCOCC1	-0.3%	/	10%	5	4%	3.9	-6%
C=CC[C@@H](CC(=O)N[C@H](CO)Cc1ccccc1)C(=O)N[C@H](COC(=O)[C@@H](CC=C)Cc1ccc(F)cc1)C(C)(C)C	-4.1%	0	/	/	-5%	/	-35%[inhibitor]
O=C(Nc1ccc(Br)cc1)C1CCN(c2cnccn2)CC1	-25%&3.8%	1	4%	-4	-1%	-1.1	-34%[inhibitor]
C/C(=N\O)C(C)Oc1ccc(Cl)cc1 (stereo not given)	/	1	9%	-26	9%	-0.5	-12%[15.4 µM]
COc1ccc(C(=O)Nc2ccc(F)cc2F)cc1OC	-1.2%	-1	12%	6	-5%	-1.3	5%
CCc1ccc(C(=O)O)cc1	-0.9%	1	25%	-6	12%	0.1	-2%[15.4 µM]
Cc1cc2c(cc(C(=O)OC(C)C(=O)NCc3ccccc3)n2C)o1 (stereo not given)	/	3	/	/	-15%	/	5%[15.4 µM]
Cc1cccc(NC(=O)c2cccc(S(=O)(=O)N3CCCC3)c2)n1	1.3%	-1	/	13	4%	/	-35%[inhibitor]
COc1ccc(-n2ccnc(SCC(=O)NC3CCCC3)c2=O)cc1	-24%	-14	2%	-7	-7%	/	16%
Cc1nn(C)c(Oc2ccccc2)c1CCNC(=O)CCl	0.6%	/	-8%	-15	8%	-2.1	7%
O=C(NNc1c(Cl)cc(Cl)cc1Cl)C1CCC1	1.4%	27	1%	4	-3%	4.2	-1%
N#C/C(=C\c1c(N2CCN(Cc3ccccc3)CC2)nc2ccccn2c1=O)S(=O)(=O)c1ccccc1	-4.4%	-27	1%	22	-14%	/	?
Cc1ccc(CCNC(=O)c2nnc(CS(=O)(=O)c3ccccc3)o2)cc1	0.9%	-1	11%	7	4%	0.6	-7%
O=C(Nc1ccccc1Cl)c1cc(S(=O)(=O)N2CCCC(C(=O)O)C2)ccc1F (stereo not given)	-2.1%	-11	10%	-1	-27%	-3.3	2%
COc1ccc(NC(=S)N2CCC(C(=O)c3ccc(C)cc3)CC2)cc1	-0.7%	1	6%	-3	-16%	4.4	20%
O=C(NCc1cccs1)c1ccc(S(=O)(=O)N2CCOCC2)cc1	-3.3%	5	14%	-5	5%	-2.8	-4%[15.4 µM]
COc1cc(/C=C2\NC(=S)N(C)C2=O)ccc1OCc1cccc(F)c1	2.6%	/	-3%	3	-8%	-2.1	-1%
CCc1nnc(NC(=O)CCCSc2nc3ccccc3[nH]2)s1	/	-7	12%	9	-1%	2.3	-13%[15.4 µM]
CCOC(=O)C1CCN(C(=O)c2ccc(OCC(=O)Nc3ccc(OCC)cc3)c(OC)c2)CC1	-1.4%	-2	/	4	-15%	/	-61%[inhibitor]
Cc1cc(C)c2nc3s/c(=C/c4ccc5c(c4)n(C)c(=O)n5C)c(=O)n3c2c1	/	/	20µM*	10	/	8.6	/

Following part.
SMILES	ClpP mod	CtBP-E1A inh	Sfp PPTase inh	TRPV1 potentiator	gsp antag	Menin-MLL FL inh	gsp ag
CCOc1ccc(C(=O)NCC(=O)NCC(c2ccc(OC)cc2)N2CCCC2)cc1 (stereo not given)	18%	-16	/	3	9%	/	-8%
CCc1nnnn1-c1ccc([N+](=O)[O-])cc1C	/	6	20%	1	6%	-3.0	34%[15.4 µM]
CCN(CC)S(=O)(=O)c1ccc(=O)n(CC(=O)N2CCCc3cc(C)ccc32)c1	-4.2%	-17	/	-3	-8%	/	29%
Cc1nc(N2CCN(c3ccccc3)CC2)[nH]c(=O)c1C	1.4%	15	16%	-21	-9%	-2.1	3%[15.4 µM]
C/C(=N\Nc1nc2c(s1)CCCC2)c1ccccc1	-2.5%	-21	?	-13	-11%	3.9	-33%
CN1CCN(C2=C(Cl)C(=O)c3ccccc3C2=O)CC1	98%	2	/	/	?	/	-8%
CCSc1nnc(NC(=O)c2ccc(C)cc2)s1	-11%	8	10%	-14	-12%	1.6	8%
O=C(NC(=S)Nc1ccc(S(=O)(=O)N2CCCCC2)cc1)c1cccs1	?	-5	?	-13	4%	0.6	8%
O=C(/C=C/c1ccc(OC2CSC2)cc1)c1ccccc1	-7.3%	-1	-9%	/	-2%	3.7	1%
COC(=O)c1ccc(CSC2=NC[C@@H]3[C@@H]4C(=O)N(Cc5ccccc5)C(=O)[C@@H]4[C@](Cc4ccccc4)(C(=O)OC)N23)cc1	-1.6%	0	/	/	-10%	/	/
COc1c(C)cccc1C(=O)NC(=S)Nc1cccc2nsnc12	/	-2	?	5	?	3.6	5%
O=C1OC(N2CCN(C(=O)C3CCCO3)CC2)c2ccccc21 (stereo not given)	-1.2%	4	12%	-11	5%	3.0	-12%
CCCCCN(CCCCC)C(=O)C(CCC(=O)O)NC(=O)c1ccc(Cl)c(Cl)c1 (stereo not given)	1.3%	3	-6%	/	-23%	-0.4&-5.9	/

2 compounds drawn at random from the list so far, as already listed:
SMILES	ClpP mod	CtBP-E1A inh	Sfp PPTase inh	TRPV1 potentiator	gsp antag	Menin-MLL FL inh	gsp ag
Cc1nc(N2CCN(c3ccccc3)CC2)[nH]c(=O)c1C	1.4%	15	16%	-21	-9%	-2.1	3%[15.4 µM]
C/C(=N\Nc1nc2c(s1)CCCC2)c1ccccc1	-2.5%	-21	?	-13	-11%	3.9	-33%

Screens deposited in PubChem BioAssay by National Center for Advancing Translational Sciences (NCATS).
